From PubChem BioAssay
VDR inh – Inhibitors of the vitamin D receptor (VDR): qHTS; 0.93% of 400,000 active; Vitamin D3 receptor (Homo sapiens), P11473; VDR-SRC2-3 peptide fluorescence polarization, 2 h; Potency, µM, for inactives: max response, negative = inhibition, actives largely listed as inhibitors; active = well fitted inhibition curve with a large enough effect; inconclusive = small, poorly fitted or top-dose-only effect, or another doubt; inactive = no such curve, though single readings can be large or run the other way; note: series mostly up to about 120 µM
Target sequence (P11473 whole entry, looked up): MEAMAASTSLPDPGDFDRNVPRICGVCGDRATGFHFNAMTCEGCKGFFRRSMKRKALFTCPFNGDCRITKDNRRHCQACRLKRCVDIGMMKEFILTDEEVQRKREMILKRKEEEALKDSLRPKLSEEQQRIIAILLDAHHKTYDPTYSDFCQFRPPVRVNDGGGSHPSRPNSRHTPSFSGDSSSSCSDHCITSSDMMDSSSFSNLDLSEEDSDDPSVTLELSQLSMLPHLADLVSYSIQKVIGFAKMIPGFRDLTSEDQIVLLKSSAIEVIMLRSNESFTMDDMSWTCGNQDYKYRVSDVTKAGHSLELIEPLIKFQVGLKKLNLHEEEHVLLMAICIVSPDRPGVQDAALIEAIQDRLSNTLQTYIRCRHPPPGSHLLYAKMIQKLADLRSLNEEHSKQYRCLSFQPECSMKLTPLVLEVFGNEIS
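After 23 nl compound addition and a short centrifugation, plates sat for 2 hours at ambient temperature; polarization of fluorescence then indicated loss of VDR binding to peptide SRC2-3.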
* marks the source's active call; other numbers are inactive results; u = inconclusive; & = joins results of further samples. % is set by controls: 0 for no effect and ±100 for the full control effect; potency is the fitted concentration of half-maximal effect.

nr	Molecule	VDR inh
1	Cc1ccc(S(=O)(=O)NCCSc2nnnn2-c2cc(C)ccc2C)cc1	-12%
2	Cc1c(C(=O)N2CCC(C)CC2)sc2ncn(CC(=O)N3CCC(C)CC3)c(=O)c12	-5%
3	CCCCN(c1nc2ccccc2nc1Cl)S(=O)(=O)c1ccc(C)cc1	-8%
4	CCOC(=O)C1=C(c2ccc(OC)cc2)C(=O)c2ccccc2C1=O	-18%
5	CCOC(=O)CCCCCC(=O)Nc1ccc2c(c1)CC(=O)N([C@H](C)CO)C[C@@H](C)[C@H](CN(C)Cc1ccc3c(c1)OCO3)O2	25%
6	COc1cccc(NC(=S)NN2C(C)CCCC2C)c1 (stereo not given)	-15%
7	CCOC(=O)C1=C(C)OC(N)=C(C#N)C1c1cc2cc(C)ccc2nc1N1CCCCC1 (stereo not given)	10%
8	Cc1ccc(-n2c(=O)c3ccc(C(=O)NCc4ccco4)cc3n(CC(=O)Nc3ccccc3C(F)(F)F)c2=O)cc1	-11%
9	COC(=O)c1cc(OC)c(OC)cc1NC(=O)c1ccc2c(c1)CCN2S(=O)(=O)c1ccccc1	4%
10	CCCCn1c(N)c(N(CCOC)C(=O)C2CCN(c3ncnc4sc(C)c(C)c34)CC2)c(=O)[nH]c1=O	5%
11	Cc1noc(C)c1C(=O)Nc1nnc(CC(C)C)s1	-6%
12	Cc1ccc(S(=O)(=O)N2CCCCC2)cc1C(=O)N1CCN(CCO)CC1	7%
13	CC(C)c1ccc(NC2CCCN(C(=O)c3ccncc3)C2)cc1 (stereo not given)	-8%
14	O=C(c1cccc(Br)c1)N1CCN(Cc2cc(=O)n3nc(-c4ccccc4)sc3n2)CC1	13%
15	Cc1cccc(OCCNC(=O)c2ccc(Cl)c(S(=O)(=O)NCc3cccnc3)c2)c1	u
16	CCN(CC)CCNC(=O)c1ccc(NC(=O)c2ccccc2-c2ccc(C(F)(F)F)cc2)cc1	-2%
17	C/C(=N\NC(=O)c1cccnc1)c1ccc(OC2OCCOC2Oc2ccc(/C(C)=N/NC(=O)c3cccnc3)cc2)cc1 (stereo not given)	40µM*
18	NC(=O)c1ncn([C@@H]2O[C@H](CNS(=O)(=O)c3cc4ccccc4s3)[C@@H](O)[C@H]2O)n1	-13%
19	Cc1ccc(C)c(NC(=S)NNC(=O)c2ccco2)c1	-23%
20	CCN(CC)C(=O)c1c(-c2ccccc2)oc2ccc(O)cc12	-22%
21	C/C(=N/NC(=O)c1ccc(Br)o1)c1cccs1	10%
22	Cc1ccc(OCCNC(=O)c2ccc3ccccc3n2)cc1	7%
23	Cc1ccc(-c2nc(=S)c3c(n2Cc2ccco2)CC(C)(C)OC3)cc1	u
24	CCOC(=O)c1c(NC(=O)C(C)NCc2ccco2)sc2c1CCC(C)C2 (stereo not given)	-7%
25	CC(C)OC(=O)CC(=O)CSc1nc2c(c(-c3cccs3)c1C#N)CCC2	-19%
26	COC(=O)c1sccc1NC(=S)N1CCN(c2cccc(C)c2C)CC1	4%
27	CC1CC=CC2C1C(=O)N(Cc1ccccc1)C2c1ccc(-c2ccc(N(C)C)cc2)cc1F (stereo not given)	-9%
28	CCn1cc(C(=O)NCCCOC)c(=O)c2cc(S(=O)(=O)N3CCCC3)ccc21	10%&-28%
29	CCOC(=O)c1ccc(NNC(=O)CC)c([N+](=O)[O-])c1	1%
30	ONC(=Nc1ccccc1)C(=Nc1ccccc1)NO	-10%
31	N#Cc1ccccc1NC(=O)c1cc(=O)c2ccccc2o1	14%
32	Cc1cccc(OCC(=O)Nc2ccc(CN3CCOCC3)cc2)c1C	-3%
33	COc1ccc([C@H]2CC(=O)C=C(c3cccc(C(F)(F)F)c3)C2)cc1	u
34	CC(=O)OCC(NC(=O)C(C)NC(=O)OC(C)(C)C)C1OC(n2cc(F)c(=O)[nH]c2=O)C(OC(C)=O)C1OC(C)=O (stereo not given)	11%
35	Cc1ccc(N2C(=O)CC(NCc3ccc4c(c3)OCO4)C2=O)cc1Cl (stereo not given)	7%
36	O=[N+]([O-])c1ccc(-c2nc(-c3cccs3)c(-c3cccs3)[nH]2)cc1	-11%
37	C=CCC1(CC=C)CCCN1C(=O)CC1C(=O)NCCN1Cc1ccc(OC)c(OC)c1 (stereo not given)	-15%
38	COC(=O)[C@H](CC(C)C)NC(=O)Cn1cnc2c(OCc3ccccc3)ncnc21	-2%
39	COCCNC(=S)Nc1ccc2[nH]c(=O)[nH]c2c1	-10%
40	CCOC(=O)C1=C(N)N(c2ccccc2)C2=C(C(=O)CCC2)C1c1cccnc1 (stereo not given)	-2%
41	Cc1ccc(C)c(CSc2nnc(C)c(=O)n2N)c1	6%
42	Cc1cc(C)c(S(=O)(=O)NCC2CCC(C(=O)NCCc3ccccc3)CC2)c(C)c1 (stereo not given)	15%
43	O=C(c1cccc(Cl)c1)N1CCC2CC1c1cc(-c3ccccc3)ccc12 (stereo not given)	6%
44	CCOC(=O)c1cccc(S(=O)(=O)N(CCO)Cc2cc3cc(OC)ccc3[nH]c2=O)c1	6%
45	CSc1nc2c(c(=O)[nH]1)C(c1cccc(Cl)c1Cl)CC(=O)N2 (stereo not given)	15%
46	CCC(C)NC(=O)c1c(C)oc2nc(C)nc(N3CCOCC3)c12 (stereo not given)	15%
47	COc1cc(F)ccc1CN1CCC(n2nccc2NC(=O)C2CCOC2)CC1 (stereo not given)	-17%
48	COc1ccc(N(/N=C2\Sc3ccccc3C2=O)C(C)=O)cc1	-27%
49	CCC(C)Nc1ccc(NC(C)CC)cc1 (stereo not given)	u
50	O=c1c2ccccc2nc(SCc2nnc(-c3ccccc3)o2)n1-c1ccc(F)cc1F	6%

Records listed so far marked active in VDR inh:
nr	Molecule	VDR inh
17	C/C(=N\NC(=O)c1cccnc1)c1ccc(OC2OCCOC2Oc2ccc(/C(C)=N/NC(=O)c3cccnc3)cc2)cc1 (stereo not given)	40µM*

The list goes on:
nr	Molecule	VDR inh
51	CCOc1ccc(OCC)c(S(=O)(=O)n2cnc(C)c2)c1	3%
52	CCCCSc1nc2c(cc1C#N)CCC2	6%
53	O=C(N/N=C/c1ccc(N2CCOCC2)cc1)c1ccccn1	-8%
54	O=C(NCCCN1CCCC1=O)c1nnc(Cc2c(F)cccc2Cl)o1	-4%
55	CN1C(=O)C2C(c3ccc(N(C)C)cc3)=NN(Cc3ccccc3)C2C1=O (stereo not given)	-2%
56	COc1ccc(-n2cc(-c3ccccc3)c3c(NC4CCCCC4)ncnc32)cc1	5%
57	CCC(C)C(=O)Nc1ccc(OC)cc1[N+](=O)[O-] (stereo not given)	10%
58	CC1CCCC(C)N1C(=O)CSc1nnc(COc2ccc(F)cc2)o1 (stereo not given)	-15%
59	C=C(Br)CN1[C@@H](Cc2ccccc2)[C@H](O)[C@@]23C=C[C@@H](C[C@@H]2S1(=O)=O)O3	-1%
60	CC1CCc2c(sc(NC(=O)CSc3ncn[nH]3)c2C#N)C1 (stereo not given)	-26%
61	O=C(Cn1cnc2ccccc2c1=O)NNC(=O)c1ccccc1	-11%
62	CO[C@H]1/C=C/O[C@@]2(C)Oc3c(C)c(O)c4c(O)c(c(C=NN5CCN(C)CC5)c(O)c4c3C2=O)NC(=O)/C(C)=C\C=C\[C@H](C)[C@H](O)[C@@H](C)[C@@H](O)[C@@H](C)[C@H](OC(C)=O)[C@@H]1C	-10%
63	CCc1nc(SCc2ccc(F)cc2)n[nH]1	7%
64	Cc1cnc(C(=O)Nc2ccc(OC(F)(F)F)cc2)cn1	-6%
65	CCc1nnc(NC(=O)CCC(=O)NC2CCCCCC2)s1	-7%
66	CC(=O)N1CCc2cc(Br)cc(S(=O)(=O)CCC(=O)N3CCN(c4ccccc4Cl)CC3)c21	-1%
67	COc1ccccc1CNC(=O)COC(=O)c1ccc(S(=O)(=O)N2CCCCC2)cc1	0%
68	COc1cc(/C=C/C(=O)Nc2cccnc2)cc(OC)c1OC	-24%
69	Cc1cccc(N2CCN(C(=O)NC(C)c3ccc(F)c(F)c3)CC2)c1C (stereo not given)	2%
70	C=C(C)CNC(=S)N1CCNC(=O)C1CC(=O)OC (stereo not given)	-14%
71	COc1ccc(NC(=O)COC(=O)c2ccc(OCc3c(C)noc3C)cc2)cc1OC	6%
72	O=C(NC1CCCCC1)N(CCN1CCCC1)Cc1cc2cc3c(cc2[nH]c1=O)OCCO3	1%
73	CC(C)CSc1n[nH]c(=S)s1	-16%
74	Cc1cc(NS(=O)(=O)c2c(C)[nH]c(=O)[nH]c2=O)ccc1Br	5%
75	CCOC(=O)c1cccc(NC(=O)c2ccc(-n3cnnn3)cc2)c1	19%
76	COc1ccccc1NCCC(=O)O	-12%
77	CCC(C)NS(=O)(=O)c1ccc(OCC(=O)NCC2CCCO2)cc1 (stereo not given)	-12%
78	CCc1cccc(NC(=O)CCS(=O)(=O)c2cc3c4c(c2)CCN4C(=O)CC3)c1	2%
79	O=C(/C=C/Nc1cccc(C(F)(F)F)c1)C(F)(F)F	13%
80	O=C(Nc1cc(Cl)ccc1N1CCOCC1)c1ccncc1	2%
81	Cc1cc([N+](=O)[O-])nn1CC(=O)NC1CCCCC1	-13%
82	O=S(=O)(Nc1ccc(F)cc1)c1ccc(NC(=S)Nc2ccccc2)cc1	-1%
83	CCN(C(=O)C1CCN(c2ncnc3c2nc2n3CCCCC2)CC1)c1cccc(Cl)c1	9%
84	NS(=O)(=O)c1ccc(CCNC(=O)C2CCC(Cn3c(=S)[nH]c4ccccc4c3=O)CC2)cc1 (stereo not given)	7%
85	Oc1ccc(-c2cc(-c3ccc(O)cc3)nc(-c3ccccc3)n2)cc1	8%
86	COc1ccc(NC(=O)CN2CCN(S(=O)(=O)c3ccc(Cl)cc3)CC2)cc1Cl	13%
87	CC1=C(C)CC(C(=O)Nc2cccc(Cl)c2)C(C(=O)O)C1 (stereo not given)	-8%
88	Cn1cc(C(=O)c2ccc(Cl)cc2Cl)cc1C(=O)N/N=C(\N)COc1ccc(Cl)cc1Cl	-17%
89	CCn1cc(C(=O)NCCC(C)C)c(=O)c2cc(F)c(N3CCN(C)CC3)cc21	2%
90	O=C(COc1ccc2c(c1)oc(=O)c1ccccc12)N[C@@H](Cc1c[nH]c2ccccc12)C(=O)O	-6%
91	COc1ccc(C(C)=O)cc1CSc1nc(NCc2ccccc2)c2ccccc2n1	7%
92	CCOc1ccc(CCNC(=O)COC(=O)c2cccc(S(=O)(=O)N(C)C)c2)cc1OCC	11%
93	CC1CN(c2nc3ccccc3nc2C(C#N)C(=O)OC2CCCCC2)CC(C)O1 (stereo not given)	-2%
94	CC1CCC(Nc2ncnc3onc(-c4ccc(Cl)cc4)c23)CC1 (stereo not given)	1%
95	Cc1cc(C)n(-c2nc(C)nc(N)n2)n1	-7%
96	COc1cc(-c2noc(C)c2C#CCO)cc(OC)c1OC	1%
97	CC(C)c1nc2ccc(C(=O)NCCCN3CCN(c4ccccc4F)CC3)cc2o1	13%
98	CCOc1ccc(NC(=O)C2CCC(CNc3c(N4CCCCC4)c(=O)c3=O)CC2)cc1 (stereo not given)	-4%
99	Cc1ccc2c(c1)c(N=NC(N)=S)c(O)n2Cc1ccccc1	-11%
100	CCCc1ccc(S(=O)(=O)N2CCN(C(C)C(=O)NCc3ccc(OC)cc3)CC2)cc1 (stereo not given)	-6%

Some of these compounds in order of length of the SMILES, rising.
nr	Molecule	VDR inh
65	CCc1nnc(NC(=O)CCC(=O)NC2CCCCCC2)s1	-7%
25	CC(C)OC(=O)CC(=O)CSc1nc2c(c(-c3cccs3)c1C#N)CCC2	-19%
33	COc1ccc([C@H]2CC(=O)C=C(c3cccc(C(F)(F)F)c3)C2)cc1	u
83	CCN(C(=O)C1CCN(c2ncnc3c2nc2n3CCCCC2)CC1)c1cccc(Cl)c1	9%

Continued.
nr	Molecule	VDR inh
101	COc1cc(/C=C/C(=O)Nc2ccc(OC)c(S(=O)(=O)N3CCOCC3)c2)ccc1OC(F)F	-24%
102	Cc1ccc2c(c1)[C@H]1[C@H](CO2)[C@H](c2ccccc2)[C@]2(C)C(=O)NCC(=O)N12	-2%
103	COc1ccc(C(C(=O)NCc2ccccc2)N(Cc2ccco2)C(=O)c2cnccn2)cc1 (stereo not given)	-14%
104	Cc1cc(Cl)ccc1OCCCC(=O)OCC(N)=O	-25%
105	COc1ccc(OCCSc2nc3nc(C)cc(C)n3n2)cc1	-15%
106	COCCN1CCN(c2c3c(nc4cc(-c5cccc(F)c5)nn24)CCC3)CC1	-4%
107	O=C1CCCC2=C1C(c1cccc(Br)c1)n1nc(-c3ccco3)nc1N2 (stereo not given)	-25%
108	COc1ccc(N(C(=O)Cn2cnc3ccccc32)C(C(=O)NC2CCCCC2)c2ccccc2)cc1 (stereo not given)	5%
109	O=C(NCc1cccnc1)c1cc(Cl)ccc1[N+](=O)[O-]	-11%
110	O=C(C1CC1)N1CCN(c2nc3c(F)cc(F)cc3s2)CC1	-5%
111	CC(C)C[C@H](NC(=O)c1nc[nH]c1C(=O)N(C)Cc1ccccc1)C(=O)OC(C)(C)C	-13%
112	Cc1ccc2c(c1)N(CC(=O)N1CCC(O)CC1)C(=O)CO2	-16%
113	CC1CC(CCC(=O)NC(=S)Nc2ccc(S(N)(=O)=O)cc2)C(=O)O1 (stereo not given)	11%
114	O=C(c1cccc(N2CCCC2=O)c1)N1CCN(c2ccc(F)cc2)CC1	12%
115	COc1ccccc1NCC(=O)n1nc(C)cc1C	-13%
116	CN(C)S(=O)(=O)c1ccc(NC(=O)COc2ncnc3sccc23)cc1	-7%

Arranged by the number under VDR inh (smallest number first): 4 of the compounds above.
nr	Molecule	VDR inh
107	O=C1CCCC2=C1C(c1cccc(Br)c1)n1nc(-c3ccco3)nc1N2 (stereo not given)	-25%
115	COc1ccccc1NCC(=O)n1nc(C)cc1C	-13%
109	O=C(NCc1cccnc1)c1cc(Cl)ccc1[N+](=O)[O-]	-11%
116	CN(C)S(=O)(=O)c1ccc(NC(=O)COc2ncnc3sccc23)cc1	-7%

This is a subset; rates above refer to the full screens.
